Yeast UUG start – modulators of start codon recognition fidelity in yeast. S. cerevisiae UUG-firefly luciferase reporter, luminescence/redox ratio. activity score, % at 18.7 µM. hit rate 0.13% among 350,000. AID 602363;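 active = replicate mean at a twofold rise or more, about +100% in these data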;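 note: firefly luciferase made from a UUG start codon reports start codon fidelity; reporter light over untreated wells divided by growth signal over untreated wells; some hits fall short of that in this replicate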
PABP FP inh – blocks human PABP binding to poly(A) RNA. fluorescence polarization. P11940. hit rate 1% among 290,000. AID 2014. inhibition, % at 35 µM;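 active = 50% or more with normal probe brightness, or confirmed in later tests; inconclusive = above 50% with abnormal brightness, or retests that disagree; inactive = below 50% or failed in later tests; about a fifth of its hits are not listed in these tables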;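 note: calls also rest on retests at 20 µM and on dose response follow-up; controls were probe without protein and protein plus probe with vehicle; some compounds called inactive have numbers as strong as hits; many hits fall short of the cut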
Target sequence (P11940 whole entry, looked up): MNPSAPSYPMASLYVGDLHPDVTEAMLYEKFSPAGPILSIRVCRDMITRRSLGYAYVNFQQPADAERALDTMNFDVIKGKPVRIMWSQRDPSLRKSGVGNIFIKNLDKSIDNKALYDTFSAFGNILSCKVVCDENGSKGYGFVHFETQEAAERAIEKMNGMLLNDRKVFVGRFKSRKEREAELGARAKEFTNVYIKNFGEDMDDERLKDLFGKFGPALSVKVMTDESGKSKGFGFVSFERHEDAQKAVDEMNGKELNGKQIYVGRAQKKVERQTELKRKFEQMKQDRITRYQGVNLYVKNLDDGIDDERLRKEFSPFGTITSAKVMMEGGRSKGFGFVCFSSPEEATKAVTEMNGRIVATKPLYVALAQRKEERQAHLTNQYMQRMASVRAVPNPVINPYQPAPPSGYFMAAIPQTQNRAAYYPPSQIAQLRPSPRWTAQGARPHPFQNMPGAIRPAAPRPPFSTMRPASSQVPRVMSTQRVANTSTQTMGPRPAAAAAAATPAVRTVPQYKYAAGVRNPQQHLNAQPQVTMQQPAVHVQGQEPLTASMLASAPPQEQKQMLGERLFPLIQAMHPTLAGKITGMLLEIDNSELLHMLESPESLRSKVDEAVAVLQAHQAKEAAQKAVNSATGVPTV
Rce1 inhib – inhibitors of yeast Ras-converting enzyme; yeast membranes, quenched prenylated peptide cleavage fluorescence; calls only; hit rate 0.27% among 290,000; AID 2563;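 active = fall in fluorescence gain of 50% or more versus controls, with final raw signal at or below 3038400; inconclusive = same 50% fall but final raw signal above 3038400; inactive = fall in fluorescence gain under 50%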;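 note: plate controls were neutral control wells for no effect and wells lacking membranes for full effect; tested at 10 µM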
Target sequence (Q03530 whole entry, looked up): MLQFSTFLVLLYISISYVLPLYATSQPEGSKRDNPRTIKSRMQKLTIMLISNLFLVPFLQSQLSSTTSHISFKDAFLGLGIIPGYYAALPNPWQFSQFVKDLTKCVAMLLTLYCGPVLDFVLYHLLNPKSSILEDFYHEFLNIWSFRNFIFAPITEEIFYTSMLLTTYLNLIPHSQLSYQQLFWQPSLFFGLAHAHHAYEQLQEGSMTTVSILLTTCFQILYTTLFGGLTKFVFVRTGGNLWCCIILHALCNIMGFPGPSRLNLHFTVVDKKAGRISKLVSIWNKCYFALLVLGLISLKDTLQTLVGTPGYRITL
HIV Env fusion – HIV envelope-mediated fusion inhibition. HeLa-JRFL Env/CEM21 cell fusion, luciferase. inhibition, % at 12.3 µM. hit rate 1.1% among 360,000;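 active = mean replicate inhibition score of at least 50 and every replicate individually at or above 50; inconclusive = only one of the two criteria met; inactive = mean below 50 and not all replicates reaching 50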;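 note: 0% = plate neutral controls and 100% = maraviroc near 300 nM; one replicate is shown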
CSC inhib – cancer stem cell inhibition; cancer stem cell-like cells viability, luminescence; hit rate 1.1% among 300,000; inhibition, % at 7.5 µM;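 active = mean at 75% or more and at least half the replicates too; inconclusive = mean and replicates disagree; tested in HMLE shEcad cells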;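 note: 0% = median of negative and 100% = median of positive control wells; the first replicate is given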
MT1-MMP act inh – blocks activation of human MT1-MMP. HT1080 RFP-PRO-GFP cells, GFP/RFP ratio fluorescence, overnight; percent of plate control window, DMSO zero. GFP/RFP ratio change, % at 20 µM. hit rate 0.061% among 360,000. AID 651647;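 active = GFP/RFP ratio change of at least 30% with cell ATP level not reduced by more than half and red fluorescence within 50% of control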; note: strong numbers were not always called active
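Material – HT1080 RFP-PRO-GFP cells · Control set – DMSO wells and RFP-L50D-GFP cells · Incubation – overnight cell settling, then overnight compound exposure, 37 °C, 5% CO2 · Compound dosing – single-point 20 µM compound, 1% DMSO · Read-out – GFP/RFP fluorescence ratio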
eIF4H inh – inhibitors of RNA binding by human eIF4H. Q15056. hit rate 0.94% among 290,000. inhibition, % at 35 µM. eIF4H fluorescence polarization binding assay;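 active = 50% or more with normal probe brightness, or confirmed in later tests; inconclusive = above 50% with abnormal brightness, or retests that disagree; inactive = below 50% or failed in later tests; about a fifth of its hits are not listed in these tables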;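 note: calls also rest on retests at 20 µM and on dose response follow-up; 0% = protein and probe with vehicle and 100% = probe without protein; strong numbers were not always called active; many hits fall short of the cut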
eIF4H inh retest – also measured in eIF4H inh; calls as there; inhibition, %; compound at 20 µM; confirmation average;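 mean of two retest wells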
PABP FP inh retest – second read-out of PABP FP inh, no call of its own (marks repeat the call); inhibition, %; compound at 20 µM; confirmation repeats;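 mean of two retest wells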
MT1-MMP act inh RFP – second read-out of MT1-MMP act inh, no call of its own (marks repeat the call); RFP signal change, %; measured here: RFP expression control read;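 0 = vehicle wells; hits needed this value within 50% of zero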
* marks the source's active call; other numbers are inactive results; i = inactive; ? = inconclusive; . = not tested or not shown; + = active, no number; [ ] = remark or other dose. These rows are one share of the data, so the mix of outcomes need not match the whole.

SMILES	Yeast UUG start	PABP FP inh	Rce1 inhib	HIV Env fusion	CSC inhib	MT1-MMP act inh	MT1-MMP act inh RFP	eIF4H inh	others
CCN(C(=O)COC(=O)/C=C/c1cnc2ccccc2n1)C1CCS(=O)(=O)C1 (stereo unspecified)	-12	18	i	16	-9	-3	0	6
CCOC(=O)c1c(C)[nH]c(C)c1C(=O)CSc1nc2ccccc2c(=O)n1-c1ccccc1C	.	64	i	-8	-4	-6	-6	3	eIF4H inh retest=-22;PABP FP inh retest=8
O=C(Nc1nn(Cc2ccccc2F)cc1Br)c1cccs1	-8	1	i	-31	-6	-2	0	-5
O=C(Nc1ccc(COc2ccccc2)cc1)Oc1ccccc1N1CCOCC1	.	-4	i	-18	-9	2	3	-8
CCn1c(SCc2ccc(C(=O)Nc3nccs3)cc2)nnc1-c1ccc(N)cc1	-12	-1	i	.	10	-7	-19	-2
COc1ccc(NC2CCCN(C(=O)CCc3cn[nH]c3)C2)cc1 (stereo unspecified)	-25	-6	i	5	-16	-2	2	12
O=S(=O)(Nc1ccc(-c2ccc(N3CCOCC3)nn2)cc1)c1cc(Cl)ccc1Cl	-19	.	i	7	3	-6	-3	.
CCCCC(=O)Nc1cc(C)c(NC(=O)c2cccs2)cn1	-11	0	i	14	-3	-3	0	-5
O=C(CSc1ccccn1)NCc1ccc2c(c1)OCO2	.	2	i	-4	7	0	0	2
O=C(/C=C/c1ccc([N+](=O)[O-])cc1)OCC(=O)c1ccc[nH]1	-16	.	.	.	-13	2	2	.
COc1ccccc1CNC(=O)C1CCN(c2ncnc3c2nc2n3CCCCC2)CC1	-2	-7	i	-4	-10	2	-4	-13
Cc1ccc(NC(=O)CCC(=O)NNC(=O)c2cccc([N+](=O)[O-])c2)cc1C	-22	6	i	2	-2	4	6	0
Cc1ccc(S(=O)(=O)NC(=O)c2cccc(Br)c2)cc1	-2	2	i	-2	20	-2	1	-11
Cc1cc(NC(=O)C2CC(=O)N(c3ccc(F)cc3)C2)no1 (stereo unspecified)	-16	-1	i	-16	-13	0	6	-11
O=C(c1cnn2c1NC(c1ccc(Br)cc1)CC2C(F)(F)F)N1CCN2CCCC2C1 (stereo unspecified)	.	-5	i	.	80*	7	3	-3
COc1ccc([C@H]2N[C@]3(CCCN(CC4CCCCC4)C3=O)[C@H]3C(=O)N(C)C(=O)[C@@H]23)cc1	-18	.	.	1	.	5	7	.
COc1ccc(N2CC(C(=O)Nc3c(C(N)=O)oc4ccccc34)CC2=O)cc1 (stereo unspecified)	4	.	i	-22	-4	0	1	.
C[C@@H](NC(=O)c1nc[nH]c1C(=O)NCCCCCNC(=O)OC(C)(C)C)c1ccccc1	3	.	.	1	.	-6	-21	.
O=C(COc1ccc(Cl)cc1Cl)NC(=O)N1CCCCC1	.	-5	i	.	-3	1	1	-9
CCCN(C)C[C@@H]1OCCCC[C@@H](C)Oc2ccc(NS(=O)(=O)c3ccc(OC)cc3)cc2C(=O)N([C@H](C)CO)C[C@@H]1C	6	.	.	-6[16.7 µM]	.	4	4	.
CCOc1ccc(OCCC(=O)OCC(=O)Nc2ccc(N3CCOCC3)cc2)cc1	-11	-2	i	.	5	-5	0	-1
COc1ccc(C(=O)C2CN(c3ccccc3)CC2c2ccc(Cl)cc2)cc1 (stereo unspecified)	-10	-6	i	.	-8	-4	-3	-4
CN(C(=O)CN1C(=O)S/C(=C\c2ccc(F)cc2)C1=O)C1CCS(=O)(=O)C1 (stereo unspecified)	-5	-16	i	-11	-15	1	-3	-16
C/C=C(/C)C(=O)Nc1cccc(C2=NOC3(C2)C[C@@H](C(N)=O)N(C(=O)CCCCC)C3)c1 (stereo partly specified)	-2	6	i	-19	.	4	7	0
CCc1ccc2c(c1)C(NC(C)=O)C(=O)N2CCN1CCOCC1 (stereo unspecified)	-7	-3	i	-29	0	-2	0	-12

Two compounds drawn at random from the list so far:
SMILES	Yeast UUG start	PABP FP inh	Rce1 inhib	HIV Env fusion	CSC inhib	MT1-MMP act inh	MT1-MMP act inh RFP	eIF4H inh	others
O=C(COc1ccc(Cl)cc1Cl)NC(=O)N1CCCCC1	.	-5	i	.	-3	1	1	-9
O=C(Nc1ccc(COc2ccccc2)cc1)Oc1ccccc1N1CCOCC1	.	-4	i	-18	-9	2	3	-8

Following part:
SMILES	Yeast UUG start	PABP FP inh	Rce1 inhib	HIV Env fusion	CSC inhib	MT1-MMP act inh	MT1-MMP act inh RFP	eIF4H inh	others
CCOC(=O)C(NC(=O)c1ccc(OC)cc1)(OCC1(CC)COC1)C(F)(F)F (stereo unspecified)	-3	-10	i	.	-8	1	0	3
Cc1cccc(OCC(=O)OC(C)C(=O)Nc2ccc(S(=O)(=O)N3CCCCC3)cc2)c1 (stereo unspecified)	.	.	i	.	8	4	-2	.
COc1ccccc1N(CC(=O)NC1CCCC1)C(=O)CCC(=O)Nc1cc(C)on1	-5	0	i	.	-16	-3	-2	5
COc1ccc2oc(C(=O)OCC(=O)N(C)c3c(N)n(Cc4ccccc4)c(=O)[nH]c3=O)c(C)c2c1	0	.	i	1	3	2	0	.
COc1ccc(-c2noc(CCCC(=O)Nc3ccc(C(N)=O)cc3)n2)cc1OC	-22	3	i	-10	-6	9	-7	3
COCC1CCN(Cc2c(C(=O)N3CCN(C4CCCCC4)CC3)nc3ccccn23)C1 (stereo unspecified)	-18	24	i	.	0	-1	4	29
O=C(C1=C(O)C(=O)N(CC2CCCO2)C1c1ccccc1[N+](=O)[O-])c1ccco1 (stereo unspecified)	-19	1	i	0	-1	-5	5	5
O=C(Nc1ccccc1)N1CCCN(Cc2ccccc2F)C1	-18	9	i	.	-8	0	1	-1
COc1ccccc1/C=N/NC(=O)CCSc1ccccc1	-13	-7	i	-20	-2	0	5	-1
Cn1nnnc1Sc1ncnc2scc(-c3cccc(C(F)(F)F)c3)c12	-11	.	.	-23	.	-12	-14	.
CCOc1ccc(/C=C/C(=O)N(CC)CC(=O)Nc2ccc3c(c2)OCCO3)cc1OC	-3	.	i	-18	-7	1	-3	.
COc1ccc(C(=O)NCC(=O)OCC(=O)N2CCC(C)CC2)cc1OC	.	-2	i	-6	-4	-1	4	-2
Cc1ccc(CNC(=O)COC(=O)c2cncc(Br)c2)cc1	-13	1	i	17	4	3	8	3
O=S(=O)(c1ccc(F)cc1)N1CCN(CC(O)COCc2ccccc2)CC1 (stereo unspecified)	-29	.	.	-4	.	-3	-1	.
COc1ccc(CN2C=C3C(=O)C(C)(OC(=O)C4CCCC4)C(=O)C=C3C=C2c2ccsc2)cc1 (stereo unspecified)	-6	20	i	-31	-7	-9	8	23
Cc1ccc(-c2cc(C(=O)NC3CCN(Cc4ccccc4)CC3)c3ccccc3n2)cc1	-49	.	i	16	-12	6	-3	.
Cc1c(C(=O)O)oc2c(F)cccc12	-8	3	i	-2	-18	0	5	0
O=C(CCN1C(=O)C2CC=C(Cl)CC2C1=O)NCc1ccccc1 (stereo unspecified)	0	5	i	.	-10	4	3	0
S=c1nc(-c2ccc(Cl)cc2)[nH][nH]1	-22	-3	i	-9	-9	4	1	-8
CCCS(=O)(=O)N1CCN(Cc2ccc(OCc3ccccc3)c(OC)c2)CC1	-3	.	i	.	-9	-4	-16	.
CCCc1n[nH]c2c1/C(=N\O)CCC2	-13	-8	i	17	-8	-6	-2	-4
Cc1ccc2cc(NC(=O)c3ccccc3)ccc2n1	-31	16	i	-83	12	0	2	5
CCc1cccc(C)c1NC(=O)CCOc1ccccc1	8	5	i	-13	-3	-5	-3	-4
Cn1c(=O)n(Cc2ccc(F)cc2)c(=O)c2c1nc1n2CCCN1Cc1ccccc1	-15	-3	i	.	0	-1	-12	1
COc1ccc(NC(=O)c2cc(-c3cc(C)ccc3O)n[nH]2)cc1Cl	-20	5	i	-10	6	14	5	6
Going on with the list.
SMILES	Yeast UUG start	PABP FP inh	Rce1 inhib	HIV Env fusion	CSC inhib	MT1-MMP act inh	MT1-MMP act inh RFP	eIF4H inh	others
COC(=O)C1CCCN1S(=O)(=O)c1ccccc1NC(=O)c1cc(OC)c(OC)c(OC)c1 (stereo unspecified)	-6	-6	i	15	-12	1	3	-8
CC(=O)NC1C(OCc2ccccc2)OC(CO)C(OC(C)=O)C1OC(C)=O (stereo unspecified)	-9	-8	i	7	-11	-3	-4	3
Cc1cc([N+](=O)[O-])ccc1NC(=O)C(C)N1CCN(c2ccccn2)CC1 (stereo unspecified)	-8	8	i	-11	6	4	-3	0
CCc1nc2ccccc2c(C(=O)OCC(=O)N2CC(C)OC(C)C2)c1C (stereo unspecified)	-15	.	i	64*	-12	-5	-3	.
COc1ccc(N(C)S(=O)(=O)c2cccc(C(=O)OC(C)C(=O)NC3CCCCC3C)c2)cc1 (stereo unspecified)	.	.	i	?	0	0	-4	.
Cc1csc2ncc(C(=O)NCc3ccco3)c(=O)n12	-25	-4	i	.	-6	2	0	14
COc1ccccc1CCNC(=O)CCn1c(=O)c2cccn2c2ccc(F)cc21	-6	0	i	6	-7	2	-2	-15
O=C(COc1ccccc1F)NCCc1ccc2c(c1)OCCO2	-17	.	.	-1	-18	-1	2	.
Cc1cc(NC(=O)CSCC(=O)N2CCN(c3ccccc3)CC2)no1	2	.	.	.	-14	2	-1	.
Cc1cc(N)ccc1-c1cc2ccccc2oc1=O	-20	3	i	-13	-7	4	-4	-8
Cc1cn(C(=O)C(C)N2C(=O)c3ccccc3C2=O)c(C)n1 (stereo unspecified)	-1	-5	i	.	-7	-5	4	-9
O=C(CNC1CCCCC1)Nc1ccc(Cl)cc1	-12	-1	i	15	-6	-3	-5	2
CN(C)S(=O)(=O)c1ccc2oc(SCC(=O)NCC(F)(F)F)nc2c1	-10	1	i	2	8	1	-1	-4
CCCC(=O)Nc1ccc(-c2ccc(NC(=O)CCC)cc2)cc1	-3	7	i	-10	-2	-3	3	5
CCOC(=O)C1CCCN(C(=O)CSc2nnnn2C)C1 (stereo unspecified)	-8	.	.	0	2	1	2	.
CC(C)c1nc(Cl)c(C#N)c2c1COC(C)(C)C2	.	2	i	-1	3	-3	4	1
Cc1nc(NC(=O)c2cccnc2Cl)sc1C	.	.	i	-21	-9	6	0	.
Cc1c(NS(=O)(=O)c2cccc(C(=O)NCc3ccncc3)c2)c(=O)n(-c2ccccc2)n1C	-10	-9	i	.	-7	-3	1	-2
CCSc1nc2ccccc2n1CCC(=O)O	-28	4	i	.	-18	3	5	-3
CN1CCN(C(=S)c2ccc(-c3cc(Cl)ccc3Cl)o2)CC1	.	-6	i	-9	4	5	-2	5
CCC(C)(C)C(=O)Nc1cc([N+](=O)[O-])ccc1F	.	6	i	7	-10	2	-5	4
CC(C)C(OC(=O)C1=Cc2ccccc2OC1)C(=O)NC1CCCC1 (stereo unspecified)	.	0	i	26	-17	0	-14	14
Cc1ccc(-c2cc(-c3ccccc3)c(C#N)c(Br)n2)cc1	.	-2	+	.	0	3	1	5
CO/N=C/Cc1c([N+](=O)[O-])c(C)nn1C	.	-2	i	-6	-12	3	1	-4
Cc1ccc(C)c(S(=O)(=O)N2CCCC2CNC(=O)C(=O)NC2CCCCCC2)c1 (stereo unspecified)	-11	.	i	7	-1	-2	-5	.
COc1ccccc1OCC(=O)n1cc(C(=O)c2cc(Cl)cc(Cl)c2O)cn1	.	4	i	-15	5	5	7	2
CCNC(=O)/C(C#N)=C/c1c(N2CCN(c3ccc(OC)cc3)CC2)nc2c(C)cccn2c1=O	-3	6	i	22	-10	-7	-7	-3
N/C(=N\OC(=O)c1ccc(Cl)cc1)c1nonc1N	-58	4	i	.	-7	3	1	-1
